Source: PubChem (Center for Chemical Genomics, University of Michigan)
HIV TAR-Tat – HIV-1 TAR-Tat binding disruption; HIV-1 TAR RNA, Tat peptide displacement FRET; stronger effect = higher value; z-score (concentration not given with the values); 0.6% of 100,000 active; AID 1259389;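 further: score is relative to mean and SD of negative controls; some compounds called inactive have numbers as strong as hits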
CDC25B-CDK2 inh – human CDC25B-CDK2/CyclinA binding inhibition | 0.72% of 94,000 active | P30305+P24941 | z-score (no concentration beside the values) | HTRF CDC25B-CDK2/CyclinA binding, anti-His/anti-Flag; stronger effect = higher value;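 further: score is relative to mean and SD of negative controls; strong numbers were not always called active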
The depositor's hits bear a star; . = no result given.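 How the source made its calls: active means z-score from 3 up in half or more of its runs; inactive means the rest.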

SMILES | HIV TAR-Tat | CDC25B-CDK2 inh
CCSc1nnc(NC(=O)c2cnc(SC)nc2-c2ccccc2)s1 | 2.2 | .
Cn1c(=O)c2sccc2n2c(CCCC(=O)NCCC3=CCCCC3)nnc12 | 1.2 | .
Cn1c(C(=O)NC2CC2)cc2sc(Cl)cc21 | . | -0.92
O=C(c1cccc(-c2nc(-c3ccccc3)no2)c1)N1CCc2ccccc21 | 1.1 | .
Cc1cc(-c2ccc(C)c(S(=O)(=O)N(Cc3cccs3)C3CCCCC3)c2)on1 | 1.2 | .
CC1=C(C(=O)OC(C)C)C(c2c(F)cccc2Cl)CC(=O)N1 (stereo not drawn) | . | -0.4
O=c1c2c(nc3nc(-c4cccs4)[nH]n13)CCCC2 | 0.84 | -0.91
C=C1C(=O)[C@]23[C@H](O)[C@H]1CC[C@H]2[C@@]12CO[C@]3(O)[C@@H](O)[C@@H]1C(C)(C)CC[C@@H]2O | 3.5 | .
Cc1ccc(-c2csc(Nc3ccc(S(=O)(=O)Nc4cc(C)on4)cc3)n2)cc1 | . | -2.1
N#CC(Nc1ccc(C(F)(F)F)cc1)c1ccccc1 (stereo not drawn) | . | -1.6
O=C1CC(c2ccco2)CC2=C1C(c1ccccc1)C1=C(N2)c2ccccc2C1=O (stereo not drawn) | 0.01 | 12*
O=C(NCCC1=CCCCC1)c1cccn1-c1nnc(N2CCCCC2)s1 | 0.97 | .
CCOc1ccccc1-c1cn2nc(CC(C)C)sc2n1 | 2.3 | -1.5
CC(C)(C)NC(=O)CSc1nc(-c2ccc(F)cc2)cc(C(F)(F)F)n1 | -2.9 | -0.04
COc1ccc(C(N)=S)cc1[N+](=O)[O-] | . | -3.1
CCc1ccc(OC(=O)CSc2nc(-c3ccccc3)nc3cc(=O)[nH]n23)cc1 | 0.88 | .
CCOC(=O)c1cc(C#N)c(C)nc1N(CC)CC | . | -1.1
Cc1cc(=O)nc2c3ccccc3n(CC(=O)NCCN(CC(C)C)CC(C)C)n12 | 0.6 | 1.3
Cn1c(CSc2ccccc2)n[nH]c1=S | . | -0.72
COc1ccc(S(=O)(=O)N2CCc3cc4cccc(C)c4nc32)cc1OC | -0.51 | -1.5
Cc1ccc(-n2nc3oc4ccc(Br)cc4cc-3c2=O)cc1C | 0.5 | -0.02
CC(C)c1c(Br)c(=O)oc2c3c4c(cc12)CCCN4CCC3 | . | -5
CCCOc1ccc(C2C(C(=O)OC(C)C)=C(C)NC3=C2C(=O)CC(C)(C)C3)cc1OC (stereo not drawn) | 1.4 | -2.3
COC(=O)c1ccc(N2C(=O)CC(N3CCN(C)CC3)C2=O)cc1 (stereo not drawn) | -0.1 | -2.3
C=CCNC(=O)C1=Cc2ccccc2OC=C1 | 0.47 | -0.09

(cont.)
SMILES | HIV TAR-Tat | CDC25B-CDK2 inh
COc1cc(OC)c(NC(=O)Nc2sc3nc4n(c(=O)c3c2C)CCC(C)CC4)cc1Cl (stereo not drawn) | 0.31 | 11*
Cc1cc(C)c2c(CC(=O)Nc3sc4c(c3C(N)=O)CCCC4)coc2c1 | 0.63 | -1.4
COc1ccc(-c2noc(Nc3ccc(OC)c(OC)c3)n2)cc1 | 0.15 | .
Cn1c(CCNC(=O)c2ccco2)nc2ccccc21 | 0.49 | -0.63
O=C(CN1C(=O)COc2ccc(S(=O)(=O)N3CCCCC3)cc21)N1CCc2ccccc2C1 | 0.06 | .
CCc1nnc(NC(=O)C2CCN(c3nccc(C)n3)CC2)s1 | 1.2 | .
COc1cc(-c2nc3ccccn3c2Nc2ccc3c(c2)OCCO3)ccc1O | 0.91 | -2.5
CCCCOc1ccc(C2C(C#N)=C(N)OC3=C2C(=O)CC(C)(C)C3)cc1OC (stereo not drawn) | . | -0.02
COCCCNC(=O)CCCn1nc(C)n2c(cc3sccc32)c1=O | -0.25 | -0.5
COCCCNC(=O)CCCn1nc(C)n2c(cc3oc(C)cc32)c1=O | 3.1 | -1.7
Cc1c(C(=O)N2CC(C)CC(C)C2)oc2ccc(S(=O)(=O)N3CCC4(CC3)OCCO4)cc12 (stereo not drawn) | . | 2.2
O=C(NCCCN1CCc2ccccc2C1)C1CCN(c2nc3cccnc3s2)CC1 | 0.2 | .
CCCc1cc(=O)n2nc(N(C)CC(=O)NCCc3ccco3)sc2n1 | 2.1 | -0.57
CC1(C)CC(=O)C2=C(C1)Nc1ccccc1NC2c1cccc(F)c1 (stereo not drawn) | 0.73 | 0.2
Cc1ccc(Nc2nc(N3CCCC3)nc3c2cnn3C)cc1 | 0.67 | .
O=C(CSc1nncn2c1cc1occc12)NCc1ccco1 | -5.1 | .
O=C(Cn1cc2c(n1)CCCC2)N1CCc2ccccc2C1 | . | -2
O=C(CN1C(=O)CSc2ncccc21)NCc1cccs1 | 0.01 | -0.42
Cc1nn(CCCC(=O)Nc2sc3c(c2C#N)CCC(C)C3)c(C)c1[N+](=O)[O-] (stereo not drawn) | -0.05 | -0.78
COc1cc(O)c(C)c(O)c1 | -0.37 | .
C=CCOC(=O)c1nc(NC(=O)CSc2nnc3ccc4ccccc4n23)sc1C | -0.26 | -1.1
CCOC(=O)c1c(C)oc2c1c(CN1CCOCC1)c(O)c1ccccc12 | 1.5 | -1.3
COc1ccc(-c2nc(=S)c3c([nH]2)Oc2c(O)cccc2C3)cc1 | -1.8 | 0.13
O=C(CC1CCCC1)Nc1nc2cc(Cl)ccc2o1 | -0.8 | .
O=S(=O)(c1cccc2cccnc12)N1CCN(Cc2ccc3c(c2)OCO3)CC1 | -0.41 | 0.25

(list continues)
SMILES | HIV TAR-Tat | CDC25B-CDK2 inh
c1ccc(Cn2c3ccccc3n3nc(-c4ccco4)nc23)cc1 | 0.05 | -4.5
NS(=O)(=O)c1ccc(-n2ncc3c(=O)[nH]c(SCC(=O)NCc4ccco4)nc32)cc1 | . | 0.6
CC(C)N1C(=O)C(O)(CC(=O)c2ccccc2O)c2ccccc21 (stereo not drawn) | 0.64 | 1.5
CCn1c(C(=O)NC2CCCCCC2)cc2sccc21 | . | -2
CCCCn1nnc(NCc2ccc(Br)cc2)n1 | 1.6 | .
Cc1cc(Nc2ccc(Br)cc2)nc(-c2ccccc2O)n1 | 1.6 | -2.9
O=C(Nc1nc2ccccc2s1)c1noc2c1CCc1sccc1-2 | -0.92 | .
Cc1ccc(-n2ncc3c(Nc4ccc5c(c4)OCO5)ncnc32)cc1C | 1.2 | .
COCCNC(=O)Cn1nc(C)c2sc3ccccc3c2c1=O | 2.1 | -2.7
Cc1ccc(-c2nc3ccccc3n3cc4c(=O)n(C)c(=O)n(C)c4c23)cc1 | 3.5 | -0.06
O=C(C1COc2cc(S(=O)(=O)Nc3ccc(F)cc3)ccc2O1)N1CCCCC1 (stereo not drawn) | -0.33 | .
CCCN(CCC)C(=O)c1c(C)oc2ncnc(N3CCOCC3)c12 | 1.1 | .
CCC(=O)NC(C)C(c1cccs1)N1CCOCC1 (stereo not drawn) | . | -0.57
Clc1ccc(OCc2nc3c4cnn(-c5ccccc5Br)c4ncn3n2)cc1 | 1.8 | -2.4
CC(C)(C)c1cc(C(C)(C)C)c2oc(C(=O)O)cc(=O)c2c1 | . | -0.57
COc1ccc(Nc2ncnc3c2cnn3-c2ccccc2)cc1 | 0.89 | -0.01
CC(C)C(NS(=O)(=O)c1ccc2c(c1)oc(=O)n2C)C(=O)NC1CCCCCC1 (stereo not drawn) | . | 0.13
O=C(Cn1c(=O)c2cccn2c2ccc(F)cc21)NCCCN1CCOCC1 | 0.98 | .
CCN1CCN(c2ncnc3onc(-c4ccc(C)cc4)c23)CC1 | 0.34 | .
Cc1ncc(-c2ccc(C)c(S(=O)(=O)Nc3ccc(F)cc3C)c2)o1 | 1.1 | .
Cc1nc(-c2ccc(S(=O)(=O)N3CCCCC3C)cc2)co1 (stereo not drawn) | 0.55 | .
Cc1ccc(-c2csc3ncn(Cc4ccc5c(c4)OCO5)c(=O)c23)cc1 | -0.16 | -0.34
NC(=O)C1CCN(C(=O)CCC(=O)N2Cc3cccn3-c3ccccc32)CC1 | 2.1 | .
CC1CN(c2ccc(NC(=S)NN)cc2)CC(C)O1 (stereo not drawn) | . | -2.3
CC(C)OCCCNC(=O)c1cc(S(=O)(=O)N2CCCCC2)c[nH]1 | 3.9 | .

Carrying on.
SMILES | HIV TAR-Tat | CDC25B-CDK2 inh
CCCc1cc(=O)[nH]c(Nc2ccc(OC)cc2OC)n1 | 2.8 | -2.1
O=C1NC(=O)c2cc(Nc3ccccc3)c(Nc3ccccc3)cc21 | . | -2.3
O=C(C1CCCC1)N1CCC(n2nc(-c3ccccc3)oc2=O)CC1 | 0.57 | -1.3
O=c1cc(CSc2nnc3c4ccccc4nc(-c4ccccc4)n23)nc2ccc(Cl)cn12 | 1.1 | .
CCN(CC)c1ccc2nnc(CCC(=O)Nc3ccccn3)n2n1 | 1.3 | .
Cc1ccc2[nH]c(-c3ccccc3)c(CN3CCOCC3)c(=O)c2c1 | 0.86 | -1.4
O=C(COc1ccc2ccc(=O)oc2c1)OCc1ccccc1 | . | 0.06
Cc1nn(CC(=O)NCCCN2CCN(C)CC2)c(=O)c2cc3sccc3n12 | . | -1.8
CCOC(=O)NC(=O)/C(C#N)=C/Nc1ccsc1C(=O)OC | . | -0.34
CCCCc1c(C)[nH]n(-c2nc(C)c(C(=O)OCC)s2)c1=O | 0.85 | -0.45
CC1Oc2ccccc2C(=O)N(CC(=O)c2ccc(Br)cc2)C1=O (stereo not drawn) | 1.1 | -0.54
Cc1ccc(N2C(=O)c3oc4ccccc4c(=O)c3C2c2cccc(Br)c2)nc1 (stereo not drawn) | 0.71 | -0.26
CCN1C(=O)C2(/C(=C(/O)c3ccc(OC)cc3)C(=O)C(=O)N2CCN(C)C)c2ccccc21 (stereo not drawn) | 1.2 | 0.45
CN(C)/C=c1\s/c(=C/C(=O)c2cccs2)[nH]c1=O | . | -0.37
CC1(C)CC(=O)c2sc(Nc3ccccc3Cl)nc2C1 | 2.4 | -1.6
O=C(Nc1nc2ccc(Br)cc2s1)c1c(O)c2c([nH]c1=O)CCCC2 | . | -1.3
COCCOC(=O)C1=C(C)NC2=C(C(=O)CC(C)(C)C2)C1c1cccnc1 (stereo not drawn) | . | -0.51
Cc1ccc(NCc2nnc3n2CCCCC3)c(C)c1 | 2 | .
CC1=C(c2ccc(C)c(C)c2)S(=O)(=O)N=C1Nc1ccccc1Cl | 0.77 | -2.6
Cc1cc(C)c(NC(=O)CSc2nncn3c2cc2occc23)c(C)c1 | -0.84 | .
CCc1nonc1NC(=O)c1ccc(C(C)(C)C)cc1 | 1.4 | -0.24
COc1ccc(S(=O)(=O)N2CCC(c3nc4ccccc4s3)CC2)cc1 | 0.36 | -1.1
CNC(=O)c1c(NC(=O)CCc2ccccc2)sc2c1CCC2 | -0.71 | .
CCOC(=O)N/N=C(\C)c1ccc([N+](=O)[O-])cc1 | . | -0.79
O=S(=O)(c1ccc(Cl)c(-c2nnc(-c3ccc(Br)cc3)o2)c1)N1CCOCC1 | -0.93 | -0.51

The listing continues:
SMILES | HIV TAR-Tat | CDC25B-CDK2 inh
CC1CCC(NC(=O)C(NS(=O)(=O)c2ccc3c(c2)oc(=O)n3C)C(C)C)CC1 (stereo not drawn) | . | -0.46
Cc1ccc(N2C(N)=NC(N)=NC23CCCC3)c(C)c1 | . | -0.32
CCN(CC)CCCNC(=O)c1oc2ccc3c(c2c1C)C(O)CC1(CCCC1)O3 (stereo not drawn) | 1.1 | -0.89
CC(O)CNc1nc2c(c(=O)n(Cc3ccccc3)c(=O)n2C)n1C (stereo not drawn) | 2.1 | -0.06
COc1ccc(-c2c(C(F)(F)F)oc3cc(OC(=O)c4ccco4)ccc3c2=O)cc1OC | 0.21 | -1.2
CCOc1ccc(N2CC(NC(=O)Nc3nccs3)CC2=O)cc1 (stereo not drawn) | -0.21 | .
COc1ccc(OC)c(-n2c(SCC(=O)N3CCCC3)nnc2-c2c[nH]c3ccccc23)c1 | . | -2.4
Cc1oc(-c2cccs2)nc1COc1ccccc1-c1nnc(-c2ccccc2)o1 | -0.44 | .
COc1ccc(C(=O)O/C(=C/c2nccn2C(=O)c2ccc(OC)cc2)c2ccc(OC)cc2)cc1 | . | 0.75
CN1CCc2c(sc(-n3cccc3)c2CNC(=O)Nc2ccc3c(c2)OCCO3)C1 | 1 | .
O=c1c2ccccc2n(Cc2ccc(Cl)cc2)c(=O)n1Cc1nc(-c2ccccc2)no1 | 0.41 | .
CCN(c1ccccc1)c1nc2ccccc2n2nnnc12 | -2.3 | -0.19

Rewritten tab-delimited: part of the list above
SMILES	HIV TAR-Tat	CDC25B-CDK2 inh
O=C(C1CCCC1)N1CCC(n2nc(-c3ccccc3)oc2=O)CC1	0.57	-1.3
O=c1cc(CSc2nnc3c4ccccc4nc(-c4ccccc4)n23)nc2ccc(Cl)cn12	1.1	.
CCN(CC)c1ccc2nnc(CCC(=O)Nc3ccccn3)n2n1	1.3	.
Cc1ccc2[nH]c(-c3ccccc3)c(CN3CCOCC3)c(=O)c2c1	0.86	-1.4
O=C(COc1ccc2ccc(=O)oc2c1)OCc1ccccc1	.	0.06
Cc1nn(CC(=O)NCCCN2CCN(C)CC2)c(=O)c2cc3sccc3n12	.	-1.8
CCOC(=O)NC(=O)/C(C#N)=C/Nc1ccsc1C(=O)OC	.	-0.34
CCCCc1c(C)[nH]n(-c2nc(C)c(C(=O)OCC)s2)c1=O	0.85	-0.45
CC1Oc2ccccc2C(=O)N(CC(=O)c2ccc(Br)cc2)C1=O (stereo not drawn)	1.1	-0.54
Cc1ccc(N2C(=O)c3oc4ccccc4c(=O)c3C2c2cccc(Br)c2)nc1 (stereo not drawn)	0.71	-0.26
CCN1C(=O)C2(/C(=C(/O)c3ccc(OC)cc3)C(=O)C(=O)N2CCN(C)C)c2ccccc21 (stereo not drawn)	1.2	0.45
CN(C)/C=c1\s/c(=C/C(=O)c2cccs2)[nH]c1=O	.	-0.37
CC1(C)CC(=O)c2sc(Nc3ccccc3Cl)nc2C1	2.4	-1.6
O=C(Nc1nc2ccc(Br)cc2s1)c1c(O)c2c([nH]c1=O)CCCC2	.	-1.3
COCCOC(=O)C1=C(C)NC2=C(C(=O)CC(C)(C)C2)C1c1cccnc1 (stereo not drawn)	.	-0.51
Cc1ccc(NCc2nnc3n2CCCCC3)c(C)c1	2	.
